BJeLR lethal: kills HRASV12-expressing BJeLR cells | BJeLR (HRASV12) viability, CellTiter-Glo ATP luminescence, 48 h; reference of the scale not given here | inhibition, % (test concentration not listed) | 300,000 tested, 0.17% active | AID 1554;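 active = replicate mean above 50%; inconclusive = above 50% but judged a plate artefact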;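 note: 50 nL library stock added to about 25 µL; numbers are from one replicate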
Mtb hypoxia inh: inhibitors of hypoxia-regulated fluorescent reporter in Mycobacterium tuberculosis. M. tuberculosis hypoxia-regulated fluorescent reporter, fluorescence. AID 1159583. fluorescence inhibition, % (test concentration not listed). 300,000 tested, 0.1% active;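 active = 35 to 45% if threefold the growth effect, above 45% if 1.5-fold the growth effect; inactive = the rest, general growth blockers included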;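 note: wells of about 50 µL received 100 nL stock; 0% = vehicle wells and 100% = reference inhibitor wells; whole bacteria with a GFP reporter of the hypoxia response; strong numbers were not always called active; many hits fall short of the cut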
RN4220 kill: kills Staphylococcus aureus RN4220. S. aureus RN4220 growth, OD600, 16 h. 330,000 tested, 0.33% active. AID 1259311. inhibition, % (no concentration beside the values);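 active = z-score of -3 or lower and OD600 up to 0.18 on both plates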;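 note: plate controls were untreated cells for no effect and reference antibiotic for full effect; stock transfer was 100 nL into about 80 µL; one replicate is shown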
Autofluor counter: flagged as autofluorescent in microsphere protease counterscreen | compound autofluorescence counterscreen, microsphere flow cytometry; active compounds read high | fluorescence intensity (test concentration not listed) | 360,000 tested, 3.1% active | AID 624483;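 active = at least 3 SD above the mean of all compounds, about 16000 in these data; inconclusive = too few beads counted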;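 note: 100 nL of 1 mM stock went into each well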
ugtP null kill: growth inhibition of S. aureus ugtP deletion strain; S. aureus RN4220 ugtP deletion, OD600 growth, 16 h; some inactives read as strong as hits; growth inhibition, % (test concentration not listed); 330,000 tested, 0.54% active; AID 1259309;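 active = z-score under -3 and OD600 up to 0.15 on both plates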;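 note: plate controls were untreated wells for no effect and antibiotic for full effect; wells of about 80 µL received 100 nL stock; the first replicate is given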
PrP UTR inh: inhibition of PrP 5' UTR reporter expression; cell-based PrP 5' UTR mRNA reporter, plate reader; inhibition, % (no concentration beside the values); 340,000 tested, 0.35% active;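 active = every replicate at 50% or more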;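 note: 0 = median of the neutral control wells; tested in H4 reporter cells; numbers are from one replicate; inactives centre near -14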
Mtb hypoxia inh growth: further read-out of Mtb hypoxia inh, marked with its call; growth inhibition, %; measured here: M. tuberculosis growth (absorbance);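 0% = vehicle and 100% = reference antibiotic; read after six days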
An asterisk follows results filed as active.

NC(=O)CCC1NC(=O)C(CO)NC(=O)c2cc([N+](=O)[O-])cc(I)c2NCCCCC(C(N)=O)NC(=O)C(Cc2ccc(O)cc2)NC1=O (centres undefined) was read as Mtb hypoxia inh 19, RN4220 kill 6.7, ugtP null kill 5 and Mtb hypoxia inh growth 8.
Screening COc1ccccc1NS(=O)(=O)c1cc(N)ccc1N1CCCCC1 returned BJeLR lethal 1, Mtb hypoxia inh 14, RN4220 kill 21, Autofluor counter 4430, ugtP null kill 1, PrP UTR inh -20 and Mtb hypoxia inh growth 12.
Screening Cc1cc2c(cc1C)C(c1ccsc1)CC(=O)N2 (centres undefined) returned BJeLR lethal -4, Mtb hypoxia inh 0, RN4220 kill 2.9, Autofluor counter 4004, ugtP null kill 1, PrP UTR inh 49 and Mtb hypoxia inh growth 5.
CCc1nnc(NC(=O)C2CCN(c3nccc(C)n3)CC2)s1 was read as BJeLR lethal 8, Mtb hypoxia inh 1, RN4220 kill 1.1, Autofluor counter 5259, ugtP null kill 5, PrP UTR inh -12 and Mtb hypoxia inh growth 9.
For CC(O)CSc1nc2c(c(=O)[nH]c(=O)n2C)n1CC(O)COc1ccccc1 (centres undefined) the results were BJeLR lethal 4, Mtb hypoxia inh 5, RN4220 kill 0.3, Autofluor counter 4037, ugtP null kill 2, PrP UTR inh -25 and Mtb hypoxia inh growth 9.
For CC(C)c1cc(C(=O)O)n[nH]1 the results were BJeLR lethal 2, Mtb hypoxia inh 6, RN4220 kill 4.2, Autofluor counter 7379, ugtP null kill 7, PrP UTR inh -5 and Mtb hypoxia inh growth 4.
Cc1csc(CN(C)C(=O)C2CCC(=O)N(CCCc3ccccc3)C2)n1 (centres undefined) was read as BJeLR lethal -11, Mtb hypoxia inh -2, RN4220 kill 1.7, Autofluor counter 5450, ugtP null kill 4, PrP UTR inh -14 and Mtb hypoxia inh growth -13.
Screening Cc1ccc(NC(=O)/C=C/C(=O)O)c(NC(=O)c2ccccc2)c1 returned BJeLR lethal -11, Mtb hypoxia inh 3, RN4220 kill 3.6, Autofluor counter 3363, ugtP null kill 7, PrP UTR inh -1 and Mtb hypoxia inh growth 7.
For COC(=O)c1c(NC(=O)CSc2nnc(Cn3nnc4ccccc43)n2C)sc(C)c1C the results were BJeLR lethal 12, Mtb hypoxia inh -4, RN4220 kill 1.8, Autofluor counter 12778, ugtP null kill -1, PrP UTR inh -3 and Mtb hypoxia inh growth 4.
Screening CCOc1ccc2oc(C(=O)NC3CC(C)(C)NC(C)(C)C3)c(C)c2c1 returned BJeLR lethal 13, Mtb hypoxia inh 2, RN4220 kill 2.1, Autofluor counter 4537, ugtP null kill 11, PrP UTR inh -6 and Mtb hypoxia inh growth -3.
For Cn1c(CCNC(=O)c2ccco2)nc2ccccc21 the results were BJeLR lethal 4, Mtb hypoxia inh 5, RN4220 kill 5.4, Autofluor counter inconclusive, ugtP null kill 7, PrP UTR inh -5 and Mtb hypoxia inh growth 0.
Screening O=C(NC1CCSc2ccccc21)c1cccc(S(=O)(=O)N2CCOCC2)c1 (centres undefined) returned BJeLR lethal -2, Mtb hypoxia inh 4, RN4220 kill 1.7, Autofluor counter 6254, ugtP null kill 4, PrP UTR inh -9 and Mtb hypoxia inh growth 2.
Screening Cc1ccc(CNC(=O)C2CCC(=O)N2C(C)C)cc1 (centres undefined) returned BJeLR lethal -5, Mtb hypoxia inh 1, RN4220 kill 0.8, Autofluor counter 3584, ugtP null kill 5 and Mtb hypoxia inh growth 8.
For CCOc1ccc(N2C(=O)CC(Sc3nc(O)c(CC)c(=O)[nH]3)C2=O)cc1 (centres undefined) the results were BJeLR lethal 7, Mtb hypoxia inh 11, RN4220 kill 3.2, Autofluor counter 6239, ugtP null kill 0 and Mtb hypoxia inh growth 1.
`O=C(CNC(=O)c1nc[nH]c1C(=O)N1CCc2ccccc2C1)OCc1ccccc1` gave BJeLR lethal 13, Autofluor counter 2896 and PrP UTR inh -12.
Screening Cc1ccc(C2=NO[C@@](CC(=O)O)(C(=O)Nc3ccc4c(c3)OCCO4)C2)cc1 returned BJeLR lethal 5, Mtb hypoxia inh -2, RN4220 kill 4.1, Autofluor counter 3221, ugtP null kill 4, PrP UTR inh -18 and Mtb hypoxia inh growth -4.
Screening COc1ccc(OCCCC(=O)Nc2cccc([N+](=O)[O-])c2)cc1 returned BJeLR lethal -1, Mtb hypoxia inh 17, RN4220 kill 10, Autofluor counter 2128, ugtP null kill 9, PrP UTR inh -16 and Mtb hypoxia inh growth -4.
CC(C)(C)NC(=O)NC(=O)COC(=O)C1CCN(S(=O)(=O)c2cccs2)CC1 was read as Mtb hypoxia inh 3, RN4220 kill 3.6, Autofluor counter 7843, ugtP null kill 4, PrP UTR inh -10 and Mtb hypoxia inh growth 2.
`Cc1nc(N)sc1C(=O)NN` gave BJeLR lethal -9, Mtb hypoxia inh 8, RN4220 kill 3.7, ugtP null kill 10, PrP UTR inh 5 and Mtb hypoxia inh growth 8.
COc1cccc(CNC(=O)CCC(=O)N2CC(C)Oc3ccccc32)c1OC (centres undefined) was read as BJeLR lethal 2, Mtb hypoxia inh 7, RN4220 kill -6.2, Autofluor counter 5585, ugtP null kill -4, PrP UTR inh -26 and Mtb hypoxia inh growth 8.
O=C(O)c1ccc(NC(=O)c2ccccc2NC(=O)c2cccc(F)c2)cc1 was read as BJeLR lethal 3, Mtb hypoxia inh 8, RN4220 kill 2.4, Autofluor counter 3958, ugtP null kill 3, PrP UTR inh -46 and Mtb hypoxia inh growth -3.
`CCOc1ccc(CCNC(=O)c2ccc(OCc3c(C)noc3C)cc2)cc1OCC` gave BJeLR lethal 0, Mtb hypoxia inh 2, RN4220 kill -3.9, Autofluor counter 6255, ugtP null kill 12, PrP UTR inh -5 and Mtb hypoxia inh growth 14.
`O=c1c2ccccc2nc(CSc2nnnn2-c2ccccc2)n1-c1ccccc1Cl` gave BJeLR lethal -9, Mtb hypoxia inh -4, RN4220 kill 6.9, Autofluor counter 3214, ugtP null kill -5, PrP UTR inh -2 and Mtb hypoxia inh growth 4.
Cc1cccc(-n2c(-c3csc(C)c3C)n[nH]c2=S)c1 was read as BJeLR lethal -7, Mtb hypoxia inh 8, RN4220 kill 2.6, Autofluor counter 2389, ugtP null kill 10, PrP UTR inh -13 and Mtb hypoxia inh growth 7.
For O=[N+]([O-])c1ccc(O)c(CN2CCCCCC2)c1 the results were BJeLR lethal -3, Mtb hypoxia inh 6, RN4220 kill 6.1, ugtP null kill 11, PrP UTR inh -2 and Mtb hypoxia inh growth 0.
`CC(Cn1cnc([N+](=O)[O-])n1)=NNC(=O)c1ccc(Br)cc1` gave Mtb hypoxia inh -7, RN4220 kill -9.6, ugtP null kill 34 and Mtb hypoxia inh growth 2.
`Cc1c(Cl)cccc1-n1ccnc1SCC(=O)O` gave BJeLR lethal -1, Mtb hypoxia inh 14, RN4220 kill 3.9, Autofluor counter 4084, ugtP null kill 4, PrP UTR inh -11 and Mtb hypoxia inh growth 9.
`Cn1c(O)c(C=NC(CC(N)=O)C(=O)O)c(=O)n(C)c1=O` (centres undefined) gave BJeLR lethal -6, RN4220 kill -3.5 and ugtP null kill -4.
`CCN(CC)S(=O)(=O)c1ccc2c(c1)N(CC(=O)NCc1ccccn1)C(=O)CO2` gave BJeLR lethal -2, Mtb hypoxia inh 13, RN4220 kill 2.7, Autofluor counter 4654, ugtP null kill 0, PrP UTR inh -9 and Mtb hypoxia inh growth 4.
`O=S(=O)(c1ccc(Oc2ccc(Br)cc2F)nc1)N1CCCCC1` gave BJeLR lethal -6, Mtb hypoxia inh 4, RN4220 kill -4.5, Autofluor counter 8748, ugtP null kill 2, PrP UTR inh -9 and Mtb hypoxia inh growth 10.
`Cc1cc(C)cc(NC(=O)c2ccc(CNc3c(N4CCCC4)c(=O)c3=O)cc2)c1` gave BJeLR lethal 10, Mtb hypoxia inh 12, RN4220 kill 3.3, Autofluor counter 4448, ugtP null kill 11, PrP UTR inh 0 and Mtb hypoxia inh growth 9.
`CCOc1cc(C=NNC(=O)c2cccc([N+](=O)[O-])c2)ccc1OS(=O)(=O)c1ccccc1` gave Mtb hypoxia inh -6, RN4220 kill 59, ugtP null kill 99* and Mtb hypoxia inh growth -2.
`COc1cc(/C=C/C(=O)OCC(=O)N(CC(C)C)c2c(N)n(Cc3ccccc3)c(=O)[nH]c2=O)ccc1O` gave Mtb hypoxia inh 2, RN4220 kill 6.8, Autofluor counter 3991, ugtP null kill 3, PrP UTR inh -4 and Mtb hypoxia inh growth 6.
Screening CC(O)CNc1nc2c(c(=O)n(Cc3ccccc3)c(=O)n2C)n1C (centres undefined) returned BJeLR lethal -12, Mtb hypoxia inh 1, RN4220 kill 2.2, Autofluor counter 3828, ugtP null kill 9, PrP UTR inh -6 and Mtb hypoxia inh growth 5.
`CC(=O)NCCCC(=O)NN1C(=S)N(Cc2ccccc2)C(=O)C1CC(=O)Nc1cccc(C)c1` (centres undefined) gave BJeLR lethal -1, Mtb hypoxia inh 6, RN4220 kill 4.1, Autofluor counter 4532, ugtP null kill 1, PrP UTR inh -5 and Mtb hypoxia inh growth 18.
`O=C(Nc1cccc(Cl)c1N1CCCCC1)c1ccc2c(c1)OCCO2` gave BJeLR lethal -1, Mtb hypoxia inh -4, RN4220 kill -10, Autofluor counter 2605, ugtP null kill 53, PrP UTR inh -16 and Mtb hypoxia inh growth 2.

Arranged by length of the SMILES (smallest number first): three of the compounds above.
`O=C(Nc1cccc(Cl)c1N1CCCCC1)c1ccc2c(c1)OCCO2` gave BJeLR lethal -1, Mtb hypoxia inh -4, RN4220 kill -10, Autofluor counter 2605, ugtP null kill 53, PrP UTR inh -16 and Mtb hypoxia inh growth 2.
Screening CC(O)CNc1nc2c(c(=O)n(Cc3ccccc3)c(=O)n2C)n1C (centres undefined) returned BJeLR lethal -12, Mtb hypoxia inh 1, RN4220 kill 2.2, Autofluor counter 3828, ugtP null kill 9, PrP UTR inh -6 and Mtb hypoxia inh growth 5.
`CCOc1cc(C=NNC(=O)c2cccc([N+](=O)[O-])c2)ccc1OS(=O)(=O)c1ccccc1` gave Mtb hypoxia inh -6, RN4220 kill 59, ugtP null kill 99* and Mtb hypoxia inh growth -2.

Next entries
Screening Cc1ccc(N2C(N)=NC(N)=NC23CCCC3)c(C)c1 returned BJeLR lethal -2, RN4220 kill 0.1, Autofluor counter 4668, ugtP null kill -3 and PrP UTR inh -10.
For C=CCc1cc(C=O)cc(OC)c1OCc1c(Cl)cccc1Cl the results were BJeLR lethal 5, Mtb hypoxia inh 2, RN4220 kill -4.9, Autofluor counter 24171*, ugtP null kill 40, PrP UTR inh -30 and Mtb hypoxia inh growth -4.
Screening COCCn1c(-c2cccc([N+](=O)[O-])c2)nc2c1c(=O)[nH]c(=O)n2Cc1ccccc1 returned BJeLR lethal -6, Mtb hypoxia inh 6, RN4220 kill -2.8, Autofluor counter 2182, ugtP null kill 5, PrP UTR inh -12 and Mtb hypoxia inh growth -5.
For O=[N+]([O-])c1ccc(C2Nc3cccc4cccc(c34)N2)cc1 the results were BJeLR lethal 3, Mtb hypoxia inh 1, RN4220 kill 15, Autofluor counter 2309, ugtP null kill -21, PrP UTR inh -11 and Mtb hypoxia inh growth -5.
Screening COc1ccc(NC(=O)CSc2nc3ccccc3c(=O)n2CCC(=O)N2CCCCC2)cc1 returned BJeLR lethal 9, Mtb hypoxia inh 2, RN4220 kill -0.8, Autofluor counter 21679*, ugtP null kill -5, PrP UTR inh -4 and Mtb hypoxia inh growth 2.
`COc1cc(C(=O)Oc2ccccc2/C=N/NC(=O)c2ccc(C)c(Cl)c2)cc(OC)c1OC` gave BJeLR lethal 28, Autofluor counter 2602 and PrP UTR inh 9.
For CC1(C)C2CC=C(C=NNC(=S)Nc3cccnc3)C1C2 (centres undefined) the results were Mtb hypoxia inh -11, RN4220 kill 2.9, ugtP null kill 5 and Mtb hypoxia inh growth -1.
For C=CCOc1ccc(/C=C2\SC(=S)N(C(C(=O)O)c3ccccc3)C2=O)cc1 (centres undefined) the results were BJeLR lethal 2, Mtb hypoxia inh 17, RN4220 kill 1.1, Autofluor counter 5058, ugtP null kill 55, PrP UTR inh -22 and Mtb hypoxia inh growth 8.
c1ccc(N2CCN(Cc3nc4ccccc4[nH]3)CC2)nc1 was read as BJeLR lethal 8, Mtb hypoxia inh 5, RN4220 kill 3.4, Autofluor counter 3988, ugtP null kill 12, PrP UTR inh -27 and Mtb hypoxia inh growth 6.
O=C(CN1CC(c2ccccc2)CC1=O)NCc1ccc(F)cc1 (centres undefined) was read as BJeLR lethal -9, RN4220 kill -0.2, Autofluor counter 4391, ugtP null kill -1 and PrP UTR inh -10.

Compound activity as filed in PubChem BioAssay.
